LASV entry inh: inhibitors of Lassa virus binding or cell entry; AID 540256; Lassa virus pseudotype entry inhibition, cell reporter; control for the full effect not named in the record; Potency, µM (doses to about 37.9 µM), for the others: top-dose activity change, negative = inhibition, hits mostly inhibitors; hit rate 1.2% among 300,000; active means well fitted inhibition curve with a large enough effect; inconclusive means small, poorly fitted or top-dose-only effect, or effect the other way; inactive means flat fitted curve, though single readings scatter; tested in HEK293 cells; further: on the % scale 0 is the no-effect control and ±100 the full control effect; nearly all actives have a fitted effect of over 50% in size; luciferase read-out
RE007 growth inh: less growth of the S. pombe RE007 Vpr strain; S. pombe RE007 Vpr strain, BacTiter-Glo ATP luminescence, 24 h; control for the full effect not named in the record; Potency, µM (series often up to 92.2 µM), for the others: at the highest dose activity change, negative = less growth; hit rate 0.21% among 360,000; active = well fitted falling curve with a large enough effect; inconclusive = small, poorly fitted or top-dose-only effect; inactive = no such curve, though single readings can be large or run the other way;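 further: on the % scale 0 is the no-effect control and ±100 the full control effect; nearly all actives have a fitted effect of over 50% in size; the assay follows cell death caused by Vpr and the record does not say whether a fall means rescue or toxicity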
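Fission yeast strain RE007, carrying one chromosomally integrated HIV-1 vpr copy, was seeded at OD 0.01 in PMG+AL medium with 23 nL pinned compound. After 24 h at 30 °C and 99% humidity, viability was read by BacTiter-Glo luminescence.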
SARS PLP yeast: SARS-CoV PLP inhibition in yeast; AID 485353; hit rate 0.19% among 330,000; S. cerevisiae expressing SARS-CoV PLpro, growth rescue; control for the full effect not named in the record; Potency, µM (titrated, usually from 32.9 µM), for the others: at the highest dose activity, positive = growth rescue; active means well fitted rising curve with a large enough effect; inconclusive means small, poorly fitted or top-dose-only effect; inactive means no such curve, though single readings can be large or run the other way; further: 0% is about no effect; nearly all actives have a fitted effect of over 55% in size; growth read by luminescence after 48 h
Marburg entry inh: Marburg virus entry inhibition; Marburg virus pseudotyped entry inhibition, cell reporter; control for the full effect not named in the record; about a third of the inactives were read at about 46 µM; AID 540276; Potency, µM (highest dose often 37.8 µM), without a hit: at the highest dose activity change, negative = inhibition, hits mostly inhibitors; hit rate 1.8% among 300,000; active = well fitted inhibition curve with a large enough effect; inconclusive = small, poorly fitted or top-dose-only effect, or effect the other way; inactive = flat fitted curve, though single readings scatter; tested in HEK293 cells; about a fifth of its hits are not listed in these tables; further: on the % scale 0 is the no-effect control and ±100 the full control effect; luciferase read-out
Cruzain inh noDet: blocks cruzain activity in detergent-free assay; Potency, µM, for inactives: max response, negative = inhibition, most hits filed as inhibitors; purified cruzain, Z-FR-AMC fluorescence, no detergent; hit rate 2.3% among 200,000; P25779;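 further: plate controls were enzyme without inhibitor for no effect and buffer without enzyme for full effect; nearly all actives have a fitted effect of over 40% in size; top concentration of the series not given in the record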
Target sequence (P25779 123-467 limits assumed): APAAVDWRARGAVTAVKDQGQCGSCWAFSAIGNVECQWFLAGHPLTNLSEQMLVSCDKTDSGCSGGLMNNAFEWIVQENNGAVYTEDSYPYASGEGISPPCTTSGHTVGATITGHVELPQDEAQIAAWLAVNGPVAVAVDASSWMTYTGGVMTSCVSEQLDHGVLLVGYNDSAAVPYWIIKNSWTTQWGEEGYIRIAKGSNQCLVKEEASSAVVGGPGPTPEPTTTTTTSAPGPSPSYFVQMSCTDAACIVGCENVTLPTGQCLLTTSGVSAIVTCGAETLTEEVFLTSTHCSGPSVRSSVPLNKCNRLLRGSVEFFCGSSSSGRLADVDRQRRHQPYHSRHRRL
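Purified cruzain at 1.5 nM, pre-incubated 15 min with compound at room temperature in 100 mM sodium acetate pH 5.5, 5 mM DTT, 0.00005% Triton X-100. Reaction started with 2 uM Z-FR-AMC; AMC fluorescence increase over 60 s gives rate.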
Cruzain inh Det: inhibitors of Trypanosoma cruzi cruzain with detergent | hit rate 0.43% among 200,000 | P25779 | Potency, µM, inactives show max response, negative = inhibition, hits mostly inhibitors | purified cruzain, Z-FR-AMC fluorescence, 0.01% Triton;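 further: plate controls were neutral wells for no effect and buffer without enzyme for full effect; nearly all actives have a fitted effect of over 40% in size; top concentration of the series not given in the record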
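Steps: dispense cruzain (1.5 nM final) in acetate buffer pH 5.5 with DTT and 0.01% Triton X-100; pin-transfer compounds; incubate 15 min RT; add Z-FR-AMC (2 uM final); read fluorescence every 30 s, using the 60 s intensity change.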
2A StopGo: lowers the luciferase signal of an FMDV 2A StopGo reporter; Potency, µM (doses to about 57.9 µM), for inactives: at the top dose signal change, negative = less light; human cells with a luciferase reporter of 2A StopGo recoding; control for the full effect not named in the record; hit rate 1.2% among 410,000; active = well fitted falling curve with a large enough effect; inconclusive = small, poorly fitted or top-dose-only effect; inactive = no such curve, though single readings can be large or run the other way; tested in HEK293T cells; further: on the % scale 0 is the no-effect control and ±100 the full control effect; nearly all actives have a fitted effect of over 45% in size; luciferase light after 4 h
NS1 inh: influenza NS1 inhibition; S. cerevisiae slowed by influenza A NS1, growth recovery by OD600; Potency, µM (top dose mostly 46.1 µM), for the others: at the highest dose activity, positive = more growth; hit rate 0.4% among 270,000; active means well fitted rising curve with a large enough effect; inconclusive means small, poorly fitted or top-dose-only effect; inactive means no such curve, though single readings can be large or run the other way; further: nearly all actives have a fitted effect of over 50% in size
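S. cerevisiae expressing influenza A NS1, grown in glucose, washed, then diluted 1:100 into pH 6.0 -URA galactose medium with 23 nl compound. Growth recovery read as OD600; NS1-free strain serves as control.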
Numbers without * were called inactive; ? = inconclusive; nt = not tested or not shown; & = joins results of further samples; [ ] = remark or other dose. Unless noted, the call rests on the fitted dose curve; in most records, active means well fitted curve in the direction sought with a large enough effect; inconclusive means small, poorly fitted or top-dose-only effect, or another doubt; inactive means no such curve, though single readings can be large; an effect the other way counts as inactive or inconclusive. Potency means the concentration at half of the fitted maximal effect. No enrichment for hits. About 4.5% of those tested had a hit in this group.

mol,LASV entry inh,RE007 growth inh,SARS PLP yeast,Marburg entry inh,Cruzain inh noDet,Cruzain inh Det,2A StopGo,NS1 inh
CC(=O)CC(c1ccc([N+](=O)[O-])cc1)c1c(O)c2ccccc2oc1=O (stereo not given),nt,-7%,-1%,nt,-5%,0.1%,-17%,10%
CCOC(=O)Cn1nc(C)cc1NC(=O)c1ccncc1,20%,-16%,-4%,9%,nt,nt,-14%,nt
Cc1c(C)c2ccc(OCC(=O)N(C)C)c(C)c2oc1=O,2%,-2%,0%,?,15%,-5.3%,14%,-4%[9.22 µM]
Cc1cc(C)c(S(=O)(=O)Nc2cccc(S(=O)(=O)NC3=NCCC3)c2)c(C)c1,0%,-28%,2%,0%[46.1 µM],nt,nt,0%,-4%
O=c1cc(C(F)(F)F)nc(-n2[nH]c3c(c2=O)CCCC3)[nH]1,-11%,-12%,-17%,-24%,-3%,6.7%,-9%,30%
O=C(Nn1c(O)c(C=C2N=c3ccccc3=N2)sc1=S)c1ccccc1Cl,nt,-8%,19%,-5%,-29%,-13%,-10%,-1%
O=C(NCc1cccc(C(F)(F)F)c1)c1cc(Cl)ccc1Cl,-1%,-5%,-14%,-22%,-7%,-6.3%,-17%,-10%
COc1ccc(N/C=C/C(=C(C#N)C#N)N(C)C)cc1,10%[46.1 µM],-19%,0%,-13%[46.1 µM],nt,nt,8%,-1%
Cc1ccc(N2CC(C(=O)N(C)CC(=O)Nc3ccc(Cl)c(C(F)(F)F)c3)CC2=O)cc1 (stereo not given),-17%,-1%,0%,?,nt,nt,-5%,nt
COc1ccccc1OCCC(=O)OCC(=O)Nc1ccc(Br)cc1,9%,-10%,-22%,23%,5%,-3.8%,-4%,6%
O=C(NNC(=O)C1CC1)Nc1ccc(Cl)cc1,nt,-5%,14%,nt,nt,nt,34%[activator],-6%
Cc1cc(C(=O)COC(=O)c2cccnc2Cl)c(C)n1CC1CCCO1 (stereo not given),nt,-24%,-6%,nt,nt,nt,?,3%
Cc1cc(-c2nnc(CCC(=O)NCc3ccc(F)c(F)c3)o2)no1,12%[46.1 µM],47%,0%,0%[46.1 µM],nt,nt,17%,2%
Cc1nn(C(C)(C)C)c(OC(=O)c2ccc3c(c2)OCO3)c1Sc1ccccc1,?,-3%,-16%,?,-6%,-2.6%,?,-3%
Cc1cccc[n+]1CC(=O)c1ccc([N+](=O)[O-])cc1,3%[46.1 µM],-5%,nt,10%[46.1 µM],nt,nt,-7%,nt
CCCSc1nnc(CSc2nc3ccccc3s2)n1-c1ccccc1,-24%,7%,-1%,?,-1%,-6.2%,?,-50%
Cc1ccc(-c2nn(C)c(=O)c3ccccc23)cc1CN1CCOCC1,1%,0%,4%,-21%&-21%[46.1 µM],-7%,7.2%,?,4%
CCOC(=O)Cn1cc(C(=O)c2ccco2)c2ccccc21,3%,-8%,-5%,25%,-10%,-6.4%,-10%,-18%
CN(C)c1ccc(N2C(=NC(=O)C3CCCO3)SC3CS(=O)(=O)CC32)cc1 (stereo not given),nt,-9%,-1%,nt,nt,nt,38%[activator],-5%
COc1cc(C2C(C(=O)Nc3ccccc3)=C(C)Nc3nc(SCc4ccccc4F)nn32)cc(OC)c1OC (stereo not given),?,nt,nt,?,0%,0.9%,17%,nt
Cc1ccc2nc(NC(=O)CCNS(=O)(=O)c3cccs3)sc2c1,-22%,13%,?,1%,-3%,-8.8%,37%[activator],-6%
Cc1cc(C)cc(-n2c(SCC(=O)NC3CCCCC3)nc3c([nH]c4ccccc43)c2=O)c1,-21%[46.1 µM],nt,nt,nt,16%,-0.1%,-17%,nt
O=C(Nc1nc2ccccc2[nH]1)c1ccc(OC(F)F)cc1,?,-20%,-5%,nt,nt,nt,13µM*,-33%
CCCN(CCC)C(=O)CSc1nc2sc3c(c2c(=O)n1-c1ccccc1)CCN(C(C)=O)C3,2%[46.1 µM],nt,nt,-2%[46.1 µM],?,-8.1%,-21%,nt
CN1CCN(c2oc(-c3cccs3)nc2S(=O)(=O)c2ccccc2)CC1,-2%,17%,-3%,29%,-4%,-1.4%,33%[activator],2%
Cc1nn(C)cc1S(=O)(=O)N1CCN(c2cccc(Cl)c2)CC1,-4%,-14%,-6%,?,nt,nt,-10%,7%
CC(=O)Nc1ccc(C2=NN(C)C(=NCc3ccccc3)SC2)cc1,?,-5%,1%,?,nt,nt,17%,nt
COc1cccc(C(=O)N2CCN(C3CCC(c4ccccc4)CC3)CC2)c1 (stereo not given),?,8%,4%,-16%[46.1 µM],10%,1.4%,-6%,-4%
O=C(CN1C(=O)S/C(=C/c2ccc(N3CCOCC3)cc2)C1=O)N1CCOCC1,1%,5%,-13%,?,7%,-3.4%,18%,4%
CCOC(=O)C1CCN(CCC(=O)Nc2ccc(Br)cc2)CC1,6%,-4%,2%,?,nt,nt,?,16%
COc1ccc(C2/C=C\CN(Cc3ccncc3)CC(=O)N2Cc2ccc(F)cc2)cc1 (stereo not given),nt,17%,0%,nt,nt,nt,3%,-5%
CC1=CCC2C(=O)N(c3nc(C)cc(C)n3)C(=O)C2C1 (stereo not given),6%,4%,1%,1%,5%,1.5%,1%,-1%
COc1ccc(-c2cccc(NC(=O)c3cccs3)c2)nn1,-24%,1%,3%,2%,nt,nt,4%,nt
Cc1nn(-c2ccc(F)cc2)c(C)c1CN1CCN(Cc2ccccc2)C(CCO)C1 (stereo not given),-14%[46.1 µM],3%,-2%,?,nt,nt,-17%,-1%
CCOc1ccc(N2C(=O)c3cccnc3C2=O)cc1,22%,-4%,0%,7%,8%,5.6%,24%,-21%
O=C(N/N=C/c1cc([N+](=O)[O-])ccc1Cl)c1ccc2nc[nH]c2c1,13%,-23%,-8%,19%,5%,?,-5%,-12%
O=C(Cn1cc(S(=O)(=O)Cc2ccccc2F)c2ccccc21)N1CCOCC1,-4%,5%,4%,?,nt,nt,-7%,-3%
CCOC(=O)c1sc(NC(=O)CSc2ncn(-c3ccccc3)n2)nc1C,?,16%,5%,?,9%,-3.3%,28%,10%
COc1cccc(CN(C)C(=O)c2cccc(S(=O)(=O)NCc3ccccc3)c2)c1OC,?,-18%,-3%,-15%,nt,nt,-19%,nt
CSc1ccccc1NC(=O)c1ccc([N+](=O)[O-])cc1,9%,?,-2%,13%,nt,nt,13%,nt
CC(C)CCN1C(Nc2ccccc2)=NC[C@@H]1C,nt,-7%,5%,nt,nt,nt,0%,-16%
COc1ccc(/C=C\c2onc(C)c2S(=O)(=O)N2CCC(C(=O)Nc3ccccc3OC)CC2)cc1,4%[46.1 µM],nt,nt,-15%[46.1 µM],?,-5.6%,-27%,nt
CCCNCc1cc(OC)c(OCC(=O)Nc2ccccc2)cc1Br,-2%[46.1 µM],3%,0%,?,nt,nt,11%,-4%
COc1ccc(C)cc1NC(=O)c1c(C(=O)Nc2cccc(C)c2C)sc2nc(C)cc(=O)n12,5%[46.1 µM],nt,nt,?,10%,-0.5%,2%,nt
COc1ccc(NC(=O)c2cn(-c3ccccc3)nc2-c2ccncc2)cc1,13%[46.1 µM],-9%,-1%,?,nt,nt,-21%,0%
O=C(c1ccc(NS(=O)(=O)c2ccccc2)cc1)N1CCN(Cc2ccc3c(c2)OCO3)CC1,?,9%,-1%,-6%,-5%,0.8%,?,-32%
CC(=O)Nc1ccc(NC(=O)CSc2n[nH]c(-c3cccs3)n2)cc1,20%,1%,-3%,18%,nt,nt,-8%,nt
C=Cc1ccc(CSc2nc(-c3ccc(C)cc3)nc3c2Cc2c(CO)cnc(C)c2O3)cc1,-1%[46.1 µM],nt,nt,nt,10%,-1.6%,-22%,nt
CC1(C)CC(=O)C2=C(C1)N(N1CCOCC1)C(N)=C(C#N)C2c1cccs1 (stereo not given),9%,8%,-1%,-2%,-14%,-5.7%,12%,-4%
O=C(N=C1SC2CS(=O)(=O)CC2N1c1ccccc1)C1CCCCC1 (stereo not given),nt,4%,5%,nt,nt,nt,-26%,3%
Cc1ccc(C(CNS(=O)(=O)c2ccc(Br)cc2)N2CCN(C)CC2)cc1 (stereo not given),-24%,-1%,-1%,?,nt,nt,-12%,nt
N#Cc1ccc(NC(=O)CN2C(=O)NC(Cc3ccccc3)C2=O)cc1 (stereo not given),-1%,-14%,-1%,6%,11%,3.8%,-4%,-1%
CCCn1c(SCC(=O)Nc2ccc(NC(C)=O)cc2)nc2c1c(=O)n(C)c(=O)n2C,-7%[46.1 µM],-16%,-1%,9%[46.1 µM],nt,nt,0%,6%
Cc1oc2ccc(OCc3ccc(Br)cc3)cc2c1C(=O)O,8%[46.1 µM],12%,1%,8%[46.1 µM],nt,nt,-6%,3%
CCN(CC)S(=O)(=O)c1cccc(C(=O)NC(C(=O)NCCc2ccccn2)C(C)C)c1 (stereo not given),-2%[46.1 µM],-9%,-1%,19%[46.1 µM],nt,nt,13%,nt
Cn1c(N)c(C(=O)COC(=O)c2ccc3ccccc3c2)c(=O)n(C)c1=O,-5%,-15%,4%,?,nt,nt,-12%,nt
CON=C1CCN(c2ncc(C(F)(F)F)cc2Cl)CC1,-3%,2%,-3%,1%,1%,-4.3%,1%,7%
c1ccc2c(CN3CCOCC3)csc2c1,0%,5%,-11%,2%,-1%,-2.4%,-10%,8%
CSc1ccccc1NC(=O)COC(=O)c1cnc(C)cn1,8%,8%,-1%,1%,nt,nt,-16%,nt
CCCOc1ccc(C(=O)Nc2ccc(NC(=O)c3ccc(Br)cc3)cc2)cc1,?,nt,nt,nt,18%,-0.3%,16%,nt
COC(=O)C/C=N/N=C1/NC(=O)/C(=C/C(=O)O)S1,nt,7%,1%,nt,nt,nt,0%,-1%

Source: PubChem
